Beta apoptosis – beta cell apoptosis inhibition; hit rate 0.8% among 300,000; AID 435005; protection from apoptosis, % (test concentration not listed); INS-1E cytokine-induced death, ATP luminescence, 48 h; percent of positive-control rescue, neutral wells zero;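 active = all replicates at 75% or more, or half of them and the mean; inconclusive = half reach 75% but not the mean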;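 also: 0% = cytokine-treated negative control wells and 100% = positive control rescue; higher means more ATP so stronger rescue from cytokine killing; wells of about 40 µL received 100 nL stock; the first replicate is given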
T cruzi inh – blocks replication of Trypanosoma cruzi. T. cruzi beta-gal in NIH3T3, luminescence, 90 h. inhibition, % (no concentration beside the values). hit rate 1.4% among 300,000. AID 1885;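 active = mean inhibition across valid replicates above about 55%, limit read from the data; inconclusive = mean below that limit but half or more replicates reach it; inactive = mean below it, under half of replicates reach it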;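 also: signal also drops with host cell toxicity which is not excluded here; 0% = plate median of DMSO wells and 100% = zero luminescence signal; higher percent means less beta-gal luminescence so fewer parasites; stock transfer was 50 nL into about 50 µL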
FGF22 binding – FGF22 (human) thermal shift binding; recombinant FGF22 thermal shift, SYPRO orange fluorescence; percent of sucrose octasulfate shift, DMSO zero; calls only at 9.99 µM; hit rate 1.5% among 340,000; AID 651658;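 active = melting point raised past a set limit in the mean and every replicate; inconclusive = no clear call; three in four hits are not shown here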
Target sequence (Q9HCT0 whole entry, looked up): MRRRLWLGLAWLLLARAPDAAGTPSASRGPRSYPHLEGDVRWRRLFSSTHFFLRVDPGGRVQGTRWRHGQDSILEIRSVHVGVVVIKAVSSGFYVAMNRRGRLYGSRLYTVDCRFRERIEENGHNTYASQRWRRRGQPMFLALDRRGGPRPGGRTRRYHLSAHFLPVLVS
AF4-AF9 inh – inhibitors of human MLL-AF4/AF9 interaction. AlphaScreen, biotin-AF4 peptide binding to FLAG-AF9. inhibition, % at 10 µM. hit rate 0.47% among 350,000;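 active = every replicate reaching a set inhibition limit, whatever the replicate mean, cut at about 25% in these data; inconclusive = mean inhibition reaches that limit but some replicates miss it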;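 also: 0% = plate neutral control median and 100% = total signal loss; the record names both 10 and 1 µM as test concentration; the first replicate is given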
Target sequence (P42568 whole entry, looked up): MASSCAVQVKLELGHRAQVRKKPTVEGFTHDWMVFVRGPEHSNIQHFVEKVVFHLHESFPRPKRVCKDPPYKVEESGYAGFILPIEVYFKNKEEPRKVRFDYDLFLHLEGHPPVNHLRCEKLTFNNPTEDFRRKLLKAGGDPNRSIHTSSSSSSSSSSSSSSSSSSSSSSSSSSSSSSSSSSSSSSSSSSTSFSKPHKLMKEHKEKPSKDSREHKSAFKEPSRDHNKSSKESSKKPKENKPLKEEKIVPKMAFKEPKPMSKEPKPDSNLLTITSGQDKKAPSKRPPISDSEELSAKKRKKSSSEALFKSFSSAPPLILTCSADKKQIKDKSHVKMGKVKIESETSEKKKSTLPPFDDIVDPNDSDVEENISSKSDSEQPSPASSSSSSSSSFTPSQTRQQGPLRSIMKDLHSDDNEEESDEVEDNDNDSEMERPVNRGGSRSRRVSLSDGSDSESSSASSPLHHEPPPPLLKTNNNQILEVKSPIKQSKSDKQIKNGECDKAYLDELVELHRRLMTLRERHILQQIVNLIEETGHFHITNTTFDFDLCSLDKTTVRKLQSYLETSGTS
UCH37 DUB inh – human UCH37 deubiquitinating enzyme inhibition; inhibition, % (test concentration not listed); hit rate 0.33% among 330,000; Q9Y5K5; purified proteasome/UCH37, Ub-AMC cleavage fluorescence;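 active = mean of two replicates above 20%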;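 also: 0% = compound-free wells with enzyme and 100% = wells lacking proteasome; stock transfer was 100 nL into about 20 µL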
Target sequence (Q9Y5K5 whole entry, looked up): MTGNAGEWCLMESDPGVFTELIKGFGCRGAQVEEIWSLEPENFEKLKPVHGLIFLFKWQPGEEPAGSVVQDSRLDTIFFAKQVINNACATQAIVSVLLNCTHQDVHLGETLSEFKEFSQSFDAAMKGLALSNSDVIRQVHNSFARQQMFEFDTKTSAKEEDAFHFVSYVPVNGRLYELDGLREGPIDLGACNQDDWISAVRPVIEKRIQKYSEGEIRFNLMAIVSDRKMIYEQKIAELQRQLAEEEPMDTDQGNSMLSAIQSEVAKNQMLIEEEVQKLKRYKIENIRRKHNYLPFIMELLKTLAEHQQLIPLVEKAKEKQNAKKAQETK
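Reagent: Ub-AMC substrate; assay system: Proteasome-associated human UCH37 deubiquitinase; controls: no-proteasome and no-compound wells; read-out: % inhibition of Ub-AMC cleavage fluorescence; timing: 30 min preincubation with enzyme, 25 min cleavage at room temperature; signal: AMC fluorescence from Ub-AMC cleavage, excitation 355 nm, emission 460 nm; buffer or medium: Tris-HCl pH 7.4 plus ovalbumin, ATP-MgCl2, DTT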
E coli growth – E. coli growth inhibition. Escherichia coli growth, OD600, 23 h; active compounds read low. hit rate 0.21% among 330,000. AID 1053175. OD600 absorbance (no concentration beside the values);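 active = OD600 absorbance below the run mean of sample wells minus 3.6 SD, in any replicate, cut at about 0.56 in these data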;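 also: stock transfer was 300 nL into about 60 µL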
rRNA inh HTS – inhibitors of bacterial rRNA selective over humanized ribosomes. E. coli WT GFP vs humanized-ribosome RFP mutants, fluorescence, 24 h; active compounds read low; DMSO median 0, no signal -100. hit rate 1.6% among 350,000. AID 720706. GFP signal change (wild-type ribosome), % (concentration not given with the values);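 active = significant combined selectivity score with lowered wild-type GFP, culture density cut under 30%, mutant RFP and density less affected; inactive = any of these conditions unmet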; also: one replicate is shown; some compounds called inactive have numbers as strong as hits
A1 inh – inhibitors of the anti-apoptotic protein A1, read as caspase activation; hit rate 0.066% among 330,000; MEF A1-2A-BIM cells, Caspase-Glo 3/7 luminescence, 3 h; percent of clofoctol response, vehicle zero; caspase activation, % (concentration not given with the values);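 active = over half of replicate activation scores above 10%, or exactly half above 10 with the replicate mean above 10; inconclusive = replicate mean below 10 yet half the replicates above 10; inactive = over half of replicates below 10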;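 also: wells of about 30 µL received 50 nL stock; many hits fall short of the cut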
rRNA inh HTS OD600 – further read-out of rRNA inh HTS, marked with its call; OD600 change, %; measured here: OD600 growth;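 optical density of the mix in the first replicate; 0 = DMSO median and -100 = no signal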
rRNA inh HTS RFP – recorded beside rRNA inh HTS, whose call it bears; RFP signal change, %; measured here: RFP humanized mutant strains;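 first replicate; 0 = DMSO median and -100 = no signal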
Active calls of the source: *; i = inactive; ? = inconclusive; / = no result given; & = joins results of further samples. Not all compounds are listed; count on the stated rates, not on these rows.

SMILES	Beta apoptosis	T cruzi inh	FGF22 binding	AF4-AF9 inh	UCH37 DUB inh	E coli growth	rRNA inh HTS	rRNA inh HTS OD600	rRNA inh HTS RFP	A1 inh
O=C(CSc1ccc2nnc(-c3ccncc3)n2n1)Nc1ccccc1F	2	10	i	-0.6	5.4	0.74	11	3	0.4	0.2
O=C(CSCC(=O)c1ccccc1)Nc1ccccc1Cl	-8	-2	/	/	3.9	0.76	/	/	/	0.5
COc1ccccc1-n1cnc2cc(NCc3cccs3)ccc21	14	13	/	/	-1.1	0.67	/	/	/	0.1
CCOC(=O)C1C(=O)CC(C)(O)C(C(=O)OCC)C1c1ccc(N(CC)CC)cc1 (centres undefined)	2	8	/	/	-2.0	0.69	/	/	/	-1.2
COc1nnc(-c2ccc(N3CCCCC3)c(NC(C)=O)c2)c2ccccc12	-1	17	/	/	4.8	0.67	/	/	/	0.6
CC12CCC(=O)N1C(C(=O)Nc1cccc3ccccc13)CS2 (centres undefined)	-8	-10	/	/	4.0	0.7	/	/	/	0.0
Cc1cc(NC(=O)C2C3C(=O)N(CC4CCCO4)C(C(=O)NC(C)(C)C)C34C=CC2(C)O4)no1 (centres undefined)	3	-12	i	-1.1	-1.8	0.67	1	19	-5.6	-0.2
C/C(=N\NC(=O)c1cc2c(s1)CCC(C)C2)c1ccncc1 (centres undefined)	3	8	i	-1.8	/	/	2	0	-0.7	-0.4
CCOc1ccc(NS(=O)(=O)c2ccc(NC(=S)NC(=O)CC(C)C)cc2)cc1	-4	8	/	/	6.3	0.78	/	/	/	0.6
CCc1cc(=O)oc2cc(C)cc(OCC(=O)N3CCC(C(=O)NC(C)C)(c4ccccc4)CC3)c12	/	8	i	-1.6	-75	0.67	-8	-27	7.1	1.7
Cc1c(-n2c(SCC(C)C)nc3ccccc3c2=O)c(=O)n(-c2ccccc2)n1C	3	0	i	-3.2	-0.4	0.39*	-26*	-21*	-5.2*	0.2
C=C(C)[C@@H]1CC=C(C(=O)O)CC1	-3	-3	i	-1.8	1.1	/	/	/	/	-0.9
COC(=O)c1cc2occc2n1CC(=O)Nc1ccc(OC)c(OC)c1OC	0	-5	/	/	1.0	0.69	/	/	/	0.3
COc1ccc(S(=O)(=O)N2CCOc3ccccc32)cc1	20	-52	i	-1.4	2.4	0.63	-22*	-12*	-0.6*	0.5
Cc1cccc(NC(=O)C2CCCN(c3cnccn3)C2)c1 (centres undefined)	/	27	i	0.8	-12	0.71	2	4	2.2	/
CN1CCN(C(=S)c2ccc(-c3cccc([N+](=O)[O-])c3)o2)CC1	-12	30	i	4.7	8.7	0.63	/	/	/	1.1
CCN(C(C)=O)N(CC)c1nc(Cl)nc(NC(C)C)n1	-28	1	i	-2.4	2.0	0.67	19	9	2.8	0.4
O=C(Nc1cccc(F)c1)N1CCCCCC1	-1	4	i	-1.9	5.4	0.69	9	15	-0.1	0.4
O=C(CN1CCN(c2ccc(O)cc2)CC1)N(C1CC1)C1CCS(=O)(=O)C1 (centres undefined)	-8	/	i	11	-1.5	0.67	10	11	-2.2	0.1
COc1ccc(CCNC(=O)CSc2nnc(CNC(=O)c3cccs3)o2)cc1OC	-5	6	/	/	0.0	0.71	/	/	/	0.4
COc1ccc(CNC(=O)C2CCCN(S(=O)(=O)c3cc(C)ccc3OC)C2)cc1 (centres undefined)	2	-1	/	/	3.8	0.66	/	/	/	1.5
NC1=NC(=O)/C(=C\c2cccnc2)S1	-11	2	i	-0.2	5.0	0.63	/	/	/	1.4
S=C(Nc1ccc(Nc2ccccc2)cc1)NC1CCCCCC1	23	55*	/	11	3.3	0.67	-28	-55	21	0.3
COCCN(C(=O)c1cc(-c2ccco2)nc2ccccc12)c1c(N)n(Cc2ccccc2)c(=O)[nH]c1=O	-3	/	i	2.2	/	/	3	-2	-1.6	0.4
CC(=O)C1=C(O)C(=O)N(c2cccnc2)C1c1cccc([N+](=O)[O-])c1 (centres undefined)	-5	-1	i	/	8.3	0.7	19	2	0.0	2.4
COc1ccc(Cc2nnc(NC(=O)CSc3ccc(C)cc3)s2)cc1	-24	-4	/	/	0.7	0.69	/	/	/	-0.9
CN(C(=O)COc1nnc(-c2cccs2)c(-c2cccs2)n1)c1ccccc1	-5	19	/	/	1.6	0.73	/	/	/	-0.2
CC(=O)Cc1nsc(NC(=O)c2ccc(Br)o2)n1	5	-11	i	-3.3	7.1	0.73	-27	-20	15	-0.9
CCOC(=O)c1ccc2[nH]c(C)cc(=O)c2c1	-1	-10	/	/	-6.8	0.7	/	/	/	-1.5
COc1ccccc1NC(=O)N1CCCC(CNC(=O)c2ccccc2Cl)C1 (centres undefined)	4	5	i	0.4	0.8	0.66	3	5	-0.4	0.7
OCCNC(=S)NC1CCCCC1	-2	-9	/	/	-0.1	0.68	/	/	/	-0.2
CN(C(=O)CSc1nc2cc(C(=O)O)ccc2c(=O)n1Cc1ccccc1)C1CCS(=O)(=O)C1 (centres undefined)	5	-18	i	1.7	1.4	0.7	4	3	2.0	0.3
CCC(=O)Nc1cc(NC(=O)CSc2ncc(-c3ccc(F)cc3)n2Cc2ccco2)ccc1C	0	11	/	/	-0.6	0.69	/	/	/	-3.0
Cc1cc(C(=O)N/N=C/c2cccnc2)n[nH]1	/	-23	i	-0.9	/	/	11	5	-0.7	0.2
CN(C)CCCNc1ccc(S(N)(=O)=O)cc1[N+](=O)[O-]	1	-8	i	1.2	5.0	0.68	/	/	/	0.7
O=C(c1ccccc1)N1CCN(C(=O)c2nn3c(C(F)(F)F)cc(-c4ccco4)nc3c2Br)CC1	-5	0	i	6.6	/	/	1	14	-1.3	0.1
COc1ccc(C(=O)C2CCCN(C3Cc4ccccc4C3)C2)c(OC)c1 (centres undefined)	/	13	i	4.2	1.6	0.66	-24	-27	-4.7	0.2
NC(=O)c1nsc(C(=O)N(Cc2cccnc2)C(C(=O)NCc2ccc(F)cc2)c2ccc(F)cc2)c1N (centres undefined)	3	-1	i	3.5	-58	0.6	-4	-5	6.8	-0.1
O=C(CCCn1c(SCc2cc(=O)n3ccccc3n2)nc2ccccc2c1=O)NCC1CCCO1 (centres undefined)	-18	0	/	1.8	-7.6	0.72	-6	-1	0.2	-0.4
CCN1C(=O)c2ccccc2S(=O)(=O)c2ccc(C(=O)NCc3cccnc3)cc21	1	5	i	3.4	7.6	0.73	-3	-2	-1.4	0.3
CCC(C)NCCCOc1cc(Cl)ccc1Cl (centres undefined)	-4	3	/	/	2.0	0.63	/	/	/	-0.4
O=C(c1ccco1)N1CCN(C(=O)c2snc3ccc(Cl)cc23)CC1	-1	-1	/	/	-6.3	0.76	/	/	/	-0.3
N/C(CC(=O)Nc1ccc(F)cc1F)=N\OC(=O)c1cccs1	-9	-18	i	-2.8	0.5	0.59	-2	0	-0.8	1.5
CCOC(=O)C1CCN(C(=O)c2ccc(OCC)c(OCC)c2)CC1	/	1	/	/	5.5	0.71	/	/	/	0.4
O=C(Nc1ccccc1N1CCCC1)C1CCN(S(=O)(=O)c2ccccc2)CC1	0	-6	i	-0.7	-0.5	0.67	2	-2	1.0	0.6
Cc1noc(C)c1NC(=O)N(C)C[C@H]1Oc2ccc(NC(=O)Nc3ccc4c(c3)OCO4)cc2C(=O)N([C@H](C)CO)C[C@@H]1C	-8	/	i	7.7&1.9	3.6	/	1&8	3&11	-1.5&4.5	-1.0
Cc1ccnc(NC2c3ccccc3C(=O)N2Cc2ccccc2Cl)c1 (centres undefined)	6	14	i	-11	5.4	0.75	3	2	0.7	/
C/C(=N\NC(=S)NCc1ccccc1)c1ccc(C(C)(C)C)cc1	26	40	i	-3.8	/	/	/	/	/	0.3
COc1ccc(NC(=O)Nc2ccc3c(c2)N(C)C(=O)CS3)cc1Cl	/	14	/	/	4.2	0.7	/	/	/	0.4
N#Cc1nc(-c2ccc(OCc3ccccc3Cl)cc2)oc1NCCCn1ccnc1	0	37	/	/	-4.9	0.74	/	/	/	0.1
C=CCn1c(C)cc(C(=O)COC(=O)COc2ccccc2C#N)c1C	-4	-5	/	/	0.1	0.68	/	/	/	0.6
COC(=O)c1cc(S(=O)(=O)N2CCN(Cc3ccccc3)CC2)c[nH]1	-8	-6	i	0.6	-0.6	0.59	8	11	2.3	1.5
Cc1ccc(NC(=O)c2sccc2C)cc1[N+](=O)[O-]	12	2	/	/	1.4	0.67	/	/	/	-8.3
CC(=O)N1c2ccc(S(=O)(=O)N3CCC(C(=O)NCCc4ccc(Cl)cc4)CC3)cc2CC1C (centres undefined)	13	17	i	1.3	1.5	0.71	1	-6	2.9	-1.2
CCc1nnc(NS(=O)(=O)c2ccc(N/C=C\C(=O)c3ccc4ccccc4c3)cc2)s1	-2	7	i	-1.8	-18	0.75	-5	-6	-0.8	0.2
COc1ccc(N(C(=O)CCl)C(C(=O)NC2CCCCC2)c2cccnc2)cc1 (centres undefined)	-14	3	/	/	2.6	0.69	/	/	/	0.6
O=C(Nc1nc2c(F)cc(F)cc2s1)C1CCN(C(=O)c2ccc(F)cc2)CC1	0	14	i	-2.8	4.9	0.66	0	5	-0.3	0.1
Cc1ccc(-c2nnc(CSc3nnc(C)s3)o2)cc1	/	-3	/	/	1.6	0.68	/	/	/	-0.5
COc1ccccc1NC(=O)c1ccccc1SC	0	-14	/	/	2.1	0.77	/	/	/	1.1
Cc1cc(C(=O)NNC(=O)COc2ccccc2Cl)n[nH]1	-9	0	i	-0.2	4.1	0.7	12	17	3.9	-0.3

New compounds follow
SMILES	Beta apoptosis	T cruzi inh	FGF22 binding	AF4-AF9 inh	UCH37 DUB inh	E coli growth	rRNA inh HTS	rRNA inh HTS OD600	rRNA inh HTS RFP	A1 inh
COc1ccc2cc3c(N)nn(C(=O)c4ccccc4Cl)c3nc2c1	-30	29	i	-35	7.6	0.67	8	4	5.2	0.6
COCCN(C(=O)CSc1nnc(-c2ccccc2C)n1C)c1c(N)n(Cc2ccccc2)c(=O)[nH]c1=O	-2	0	i	-5.6	-0.8	0.71	14	12	2.0	0.3
CC(=O)Nc1ccc(NC(=O)C/C(C)=N/NC(=O)COc2cc(C)c(Br)cc2Br)cc1	-4	2	i	-0.1	/	/	3	4	13	?
Cc1cc(C)cc(N2CC(O)Cn3c2nc2c3c(=O)[nH]c(=O)n2C)c1 (centres undefined)	-6	-12	i	1.9	5.0	0.66	3	7	-1.4	0.1
COc1ccccc1NC(=O)c1ccc(-n2cncn2)nc1	-1	-25	i	-1.0	1.7	0.68	21	10	1.9	-0.1
CN(CC(=O)Nc1ccc(Cl)cc1)C(=O)c1ccc(COc2ccccc2)cc1	5	/	i	-1.9	3.2	0.72	8	8	0.4	0.4

High-throughput results deposited in PubChem BioAssay by several laboratories.
